# High-throughput results: PubChem BioAssay, Johns Hopkins Ion Channel Center
# KCNQ2 inh: KCNQ2 potassium channel inhibitors, primary screen, cell-based, CHO-K1, FluxOR thallium flux, B-score (AID 2156). B-score at 10 µM. 1.1% of 310,000 active. 20 min; active compounds read low; only compounds with negative scores are shown here; some inactives read as strong as hits. Potassium voltage-gated channel subfamily KQT member 2 (Rattus norvegicus), O88943;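 active = fluorescence ratio B-score at most minus 3 library SDs, with starting brightness B-score within 2 library SDs, cut at about -5.5 in these data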
# Target sequence (O88943 whole entry, looked up): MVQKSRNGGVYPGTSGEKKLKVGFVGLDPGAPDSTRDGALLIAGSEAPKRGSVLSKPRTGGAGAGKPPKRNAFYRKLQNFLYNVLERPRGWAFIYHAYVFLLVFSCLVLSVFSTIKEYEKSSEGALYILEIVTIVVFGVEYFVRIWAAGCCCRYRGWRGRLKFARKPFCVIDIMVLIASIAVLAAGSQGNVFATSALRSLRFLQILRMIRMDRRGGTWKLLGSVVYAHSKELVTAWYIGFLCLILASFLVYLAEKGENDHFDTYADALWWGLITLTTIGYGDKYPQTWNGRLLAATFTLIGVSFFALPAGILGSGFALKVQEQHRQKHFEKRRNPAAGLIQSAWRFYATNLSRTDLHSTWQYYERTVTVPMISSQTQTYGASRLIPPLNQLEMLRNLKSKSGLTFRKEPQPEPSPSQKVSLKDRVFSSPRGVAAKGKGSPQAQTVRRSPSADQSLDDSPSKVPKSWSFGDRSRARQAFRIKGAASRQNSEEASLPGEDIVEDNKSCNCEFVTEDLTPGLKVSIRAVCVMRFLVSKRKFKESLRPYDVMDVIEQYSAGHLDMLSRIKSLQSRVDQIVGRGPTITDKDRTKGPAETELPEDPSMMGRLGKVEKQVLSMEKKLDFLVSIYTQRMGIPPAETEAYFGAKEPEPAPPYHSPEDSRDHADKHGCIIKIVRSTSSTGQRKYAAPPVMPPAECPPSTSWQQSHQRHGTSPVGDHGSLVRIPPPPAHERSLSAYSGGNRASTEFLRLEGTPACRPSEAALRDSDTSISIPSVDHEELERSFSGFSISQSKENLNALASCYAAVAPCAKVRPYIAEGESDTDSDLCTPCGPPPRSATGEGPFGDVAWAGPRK
# KCNQ2 inh baseline: further read-out of KCNQ2 inh, marked with its call; B-score; measured here: initial fluorescence intensity artifact check;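 brightness before thallium and not channel activity; 0 = typical well and far values either way flag optical interference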
# * hit, by the source's call; i = inactive.
KCNQ2 inh baseline,KCNQ2 inh,molecule
2,i,CC(=O)Nc1ccc(NC(=O)CN(c2ccccc2Cl)S(C)(=O)=O)cc1
-0.01,i,CS(=O)(=O)N1CCc2cc(C(=O)Nc3ccc(COCC(F)(F)F)cc3)ccc21
0.01,i,CCOC(=O)N1CCN(S(=O)(=O)N2CCCC(C(=O)NCCc3ccc(Cl)cc3)C2)CC1 (stereo unspecified)
3.6,i,N#CC1=C(N)C(C#N)(C#N)[C@H](c2c(F)cccc2F)[C@H]2CC3(CC=C12)OCCO3
-1.1,i,CC1=C(C(=O)Nc2cccnc2)C(c2ccc(C(C)C)cc2)n2ncnc2N1 (stereo unspecified)
2.4,i,Cc1nc(N2CCN(c3ccccc3)CC2)nc2c1C(=O)CC(C)C2 (stereo unspecified)
0.25,i,O=C(CSc1ccc2nnc(-c3ccccn3)n2n1)Nc1ccccc1C(F)(F)F
2.4,i,COC(=O)CN1C(=O)C(O)(CC(=O)c2ccccc2)c2ccccc21 (stereo unspecified)
-0.9,i,COc1ccc(OCc2cccc(C(=O)Nc3ccc(CN4CCCCC4)cc3)c2)cc1
0.33,i,CCOC(=O)C1CCCCN1C(=O)c1ccc2nc(Cc3ccc(OC)cc3)oc2c1 (stereo unspecified)
0.09,i,O=S(=O)(c1ccc(-c2cc(C(F)(F)F)on2)s1)N1CCCC1
2.6,i,COCCNC(=O)CCc1nnc(Cc2ccc(-c3ccccc3)cc2)o1
-0.02,i,Cc1nc2ccc(S(=O)(=O)N(C)CC(=O)NCc3ccc4c(c3)OCO4)cc2s1
-2.5,i,NC1=NC(=O)C(CC(=O)c2ccc(Cl)cc2)S1 (stereo unspecified)
1.3,i,Cc1ccc(C)c(OC(=O)c2cccnc2)c1
1.9,i,C=CCNc1nc(C2(C)CC3(CC(C)(C)OC3=O)C(=O)O2)cs1 (stereo unspecified)
0.02,i,COc1cc(/C=C/C(=O)OCC(=O)N2CCC(C)CC2)ccc1O
-0.54,i,COc1ccc(/C(C)=N/NC(=O)c2ccc(CSc3cccc4cccnc34)cc2)cc1OC
1.9,i,Cc1cc(N)ccc1NC(=O)CN1CCOCC1
-1.8,i,COc1ccc(NS(=O)(=O)c2ccc3oc(SC(C)C(N)=O)nc3c2)cc1 (stereo unspecified)
0.01,i,COc1cccc(Cc2n[nH]c(=S)n2Cc2ccco2)c1
-0.51,i,CCOC(=O)C1CCN(CCC(=O)Nc2cccc(Cl)c2)CC1
0.35,i,Cn1c(C2=C(O)CN(c3ccccc3)C2=N)nc2ccccc21
-0.01,i,COc1ccc(C)cc1S(=O)(=O)NC(C)C(=O)NC1CC1 (stereo unspecified)
0.75,i,Nc1nnnn1CC(=O)N/N=C/c1cccs1
-0.01,i,CCCCN(CCCC)C(=O)/C=C/c1cccc([N+](=O)[O-])c1
-0.35,i,CC(=O)C(C)n1c(CN2CCN(C(=O)c3ccco3)CC2)nc2c1c(=O)n(C)c(=O)n2C (stereo unspecified)
-0.68,i,CCOc1ncccc1C(=O)OCC(=O)Nc1ccc(-c2nc3ccc(C)cc3s2)cc1
0.02,i,Cc1ccc(-n2nc3ccc(NC(=O)/C=C/c4ccco4)cc3n2)cc1C
-1.3,i,Cc1cc(NC(=O)CN2C(=O)C3CC=CCC3C2=O)no1 (stereo unspecified)
-1.2,i,COC(=O)c1cc2c(ccn2C)n1C
-0.53,i,CC(=O)c1ccc[n+](CC(=O)NC(C)c2ccccc2)c1 (stereo unspecified)
0.55,i,O=C(NNc1ncc(C(F)(F)F)cc1Cl)c1c(Cl)cccc1Cl
-1.2,i,Cc1ccc(NC(=O)C2CCCN2C(=O)OCc2ccccc2)c(O)c1 (stereo unspecified)
-0.57,i,COC(=O)C1=C(NC(=O)c2ccc(Br)cc2)CCS1
1.4,i,COc1ccc(CCNC(=O)C2CCCN2C(=O)Nc2ccc(F)cc2)cc1OC (stereo unspecified)
-0.03,i,CC(=O)Nc1ccc(S(=O)(=O)NCC2CCC(C(=O)NC3CCCCCC3)CC2)cc1 (stereo unspecified)
0.32,i,Cc1ccc(OCc2cc(C(=O)N3CCCC3)no2)cn1
0.03,i,COc1ccc(NC(=O)C2CCCN(c3ncnc4onc(-c5ccc(F)cc5)c34)C2)cc1 (stereo unspecified)
0.15,i,[O-][n+]1onc2c1CCC(=N/O)/C2=N\Nc1ccccc1
-0.19,i,Cc1c(-c2ccccc2)nc2ccccc2c1C(=O)Oc1ccc([N+](=O)[O-])cc1
2,i,Cc1cc(C)c2c(n1)nn1c(C3CC3)cc(C(F)(F)F)nc21
-2.5,i,CCOC(=O)COn1c2c(c3c4no[n+]([O-])c4ccc31)CCCC2
-0.29,i,O=C(CSc1ccccc1)N1CCCC(N2CCN(c3cccc(Cl)c3)CC2)C1 (stereo unspecified)
-0.08,i,CN(C)S(=O)(=O)c1ccc(N2CCCC2)c(C(=O)NC(c2ccccc2)c2ccccc2)c1
0.45,i,COc1ccc(N2C(=O)CCC(C(=O)N3CCOCC3)C2c2ccc(F)cc2)cc1 (stereo unspecified)
-0.01,i,COc1cc(/C=C(\NC(C)=O)C(=O)Nc2cccc(O)c2)ccc1OC(C)=O
-0.04,i,CCCn1nnnc1NCc1ccccc1C
2.8,i,Fc1ccc2nc3[nH]c4ccccc4c3nc2c1
0.74,i,COc1cc(CCC(=O)NCC2CCCO2)cc(OC)c1OC (stereo unspecified)

# In a second layout: entries from further up
SMILES	KCNQ2 inh baseline	KCNQ2 inh
Cc1cc(N)ccc1NC(=O)CN1CCOCC1	1.9	i
COc1ccc(NS(=O)(=O)c2ccc3oc(SC(C)C(N)=O)nc3c2)cc1 (stereo unspecified)	-1.8	i
COc1cccc(Cc2n[nH]c(=S)n2Cc2ccco2)c1	0.01	i
CCOC(=O)C1CCN(CCC(=O)Nc2cccc(Cl)c2)CC1	-0.51	i
Cn1c(C2=C(O)CN(c3ccccc3)C2=N)nc2ccccc21	0.35	i
COc1ccc(C)cc1S(=O)(=O)NC(C)C(=O)NC1CC1 (stereo unspecified)	-0.01	i

# (list continues)
KCNQ2 inh baseline,KCNQ2 inh,molecule
-0.28,i,COc1ccccc1-c1nc(C#N)c(N2CCc3ccccc3C2)o1
-0.2,i,O=C(CC(C(=O)O)c1ccc(Cl)cc1)c1ccc(Br)cc1 (stereo unspecified)
-1.1,i,O=C(N/N=C/c1ccc(N2CCCCC2)o1)c1ccccc1[N+](=O)[O-]
-0.33,i,CC(OC(=O)c1ccc(Br)c(S(=O)(=O)N2CCOCC2)c1)C(=O)NC1CCCCC1C (stereo unspecified)
0.43,i,COc1ccc(-c2[nH]n(-c3ccc([N+](=O)[O-])cc3)c(=O)c2C=NCCN2CCNCC2)cc1
-0.04,i,CCc1nnc(N/N=C/c2ccc(-c3ccc([N+](=O)[O-])cc3)o2)n1N
0.55,i,O=c1oc2cc(Oc3c([N+](=O)[O-])cc(C(F)(F)F)cc3[N+](=O)[O-])ccc2c2c1CCCC2
3.2,i,Oc1ccc(/C=C/c2ccc3cccc(O)c3n2)cc1Br
0.21,i,COc1ccc(N(C(=O)CSCC(=O)Nc2cc(C)on2)C(C(=O)NC2CCCCC2)c2ccc(O)c(O)c2)cc1 (stereo unspecified)
0.01,i,COc1ccc(/C=C(/NC(=O)c2ccco2)C(=O)N2CCCCC2)cc1
1.8,i,CCOC(=O)C1CCCN(C(=O)CCn2nnnc2CN2CCOCC2)C1 (stereo unspecified)
-0.67,i,Cc1ccc(N2CCN(C(=O)c3ccccc3NC(=O)c3ccccc3C(=O)O)CC2)cc1
1.2,i,O=[N+]([O-])c1ccc(-c2ccc(/C=N/O)o2)cc1
-0.73,i,CC(C)C(=O)N1CCC2(CC1)Oc1ccc(Cl)cc1C(=O)C21CC(c2ccc(Cl)cc2)=NO1 (stereo unspecified)
-1.6,i,O=C(CCCN1C(=O)c2cccc3cccc(c23)C1=O)N1CCN(Cc2ccc3c(c2)OCO3)CC1
1.2,i,CC1C[C@@]2(NC(=O)NC2=O)C(C)CN1C (stereo partly specified)
1.3,i,CC(C)Sc1nc2c(c(=O)n1-c1ccc(F)cc1)SCC2
-0.53,i,O=S(=O)(c1ccc(-c2csc(=Nc3ccccc3)n2CCCN2CCOCC2)cc1)N1CCOCC1
0.93,i,CCOc1ncccc1C(=O)OCc1c(Cl)cccc1Cl
0.52,i,COc1ccc(C(=O)N/C(=C\c2cccs2)C(=O)N2CCN(C)CC2)cc1OC
-0.04,i,O=C(Nc1ccccc1-c1nc2ccccc2[nH]1)c1ccc(S(=O)(=O)N2CCCCC2)cc1
0.05,i,NC(=O)COC(=O)c1ccc(Cl)c(S(=O)(=O)N(Cc2ccccc2)c2ccc(Cl)cc2)c1
-1.3,i,O=c1[nH][nH]cc1C=NCc1cccnc1
0.41,i,CC1C(=O)CC(c2ccccc2)NC1c1ccccc1 (stereo unspecified)
0.53,i,O=C(Cc1cccs1)NCc1cccc(F)c1
-0.04,i,Brc1ccc(C2Nc3cccc4cccc(c34)N2)o1
-0.97,i,O=C(CC1C(=O)NCCN1C(=O)c1ccc(Cl)cc1)Nc1ccc(F)cc1 (stereo unspecified)
-0.71,i,Cn1c(SCC(=O)Nc2ccccc2-c2ccccc2)nnc1-c1ccco1
0.17,i,Cc1cc(C)c2nc(NC(=O)C3CC(=O)N(Cc4ccco4)C3)sc2c1 (stereo unspecified)
0.81,i,CC(C)CCNC(=O)COc1ccc2c(c1)C(=O)CC(C)(C)O2
-0.43,i,C=CCOc1ccc(-c2nc3c(c(=O)[nH]c(=O)n3CCCC)n2C)cc1Br
1.1,i,O=C1NC2C(NC(=O)N2C2CCCCC2)N1C1CCCCC1 (stereo unspecified)
-0.18,i,COC(=O)C1=C(C)NC2=C(C(=O)CC(c3cccs3)C2)C1c1ccsc1 (stereo unspecified)
2.4,i,CCC(C)N(C(=O)COC(=O)c1nc(Cl)ccc1Cl)C1CCS(=O)(=O)C1 (stereo unspecified)
0.43,i,CC(=O)c1ccc(S(=O)c2ccccc2)cc1 (stereo unspecified)
-0.37,i,N#Cc1c(Nc2ccccc2C(F)(F)F)s[nH]c1=O
-1.7,i,S=C(NCCc1ccc(Cl)cc1)NCc1ccccc1
-1.5,i,Cc1ccc(C(C)C)c(OCC(O)CN2CCc3ccccc3C2)c1 (stereo unspecified)
0.26,i,Cc1ccc(C)c(-c2ccc(=O)n(Cc3ccc(F)cc3Cl)n2)c1
-0.37,i,COc1cccc(NC(=O)c2cccc(N3C(=O)C4CCC(C)CC4C3=O)c2)c1 (stereo unspecified)
0.03,i,CCOc1ccc(OCC)c(NS(=O)(=O)c2ccc3c(c2)CCN3C(=O)C2CCC2)c1
0.36,i,CCC(C)(C)NC(=O)C(c1ccc(F)cc1)N(Cc1ccc(OC)cc1)C(=O)c1cnccn1 (stereo unspecified)
-0.65,i,Cc1ccc(C)c(Nc2cc(C)nc3ccccc23)c1
0.14,i,Cc1c(NC(=O)Nc2cc(Cl)ccc2Cl)c(=O)n(-c2ccccc2)n1C
2.3,i,CCN1CCN(C(=O)c2cc3c(s2)-c2ccccc2S(=O)(=O)C3)CC1
-0.08,i,COCCN1CC(C(=O)NCCc2nc(C)c(C)s2)CCC1=O (stereo unspecified)
0.06,i,NC(=O)CN1CCN(C2CC(=O)N(CCc3ccccc3)C2=O)CC1 (stereo unspecified)
1.2,i,CCN1C(=S)SC(=O)C1=C1C=C(C)OC(C)=C1
-0.63,i,COCCOC(=O)c1c(C)oc2ccc(OC(=O)c3c(OC)cccc3OC)cc12
0.74,i,CCOC(=O)N1CCC(NC(=O)C2CCN(C(=O)N3CC(C)Oc4ccc(C)cc43)CC2)CC1 (stereo unspecified)

# 6 entries picked at random from those above:
KCNQ2 inh baseline,KCNQ2 inh,molecule
0.74,i,CCOC(=O)N1CCC(NC(=O)C2CCN(C(=O)N3CC(C)Oc4ccc(C)cc43)CC2)CC1 (stereo unspecified)
-0.08,i,COCCN1CC(C(=O)NCCc2nc(C)c(C)s2)CCC1=O (stereo unspecified)
0.03,i,CCOc1ccc(OCC)c(NS(=O)(=O)c2ccc3c(c2)CCN3C(=O)C2CCC2)c1
-0.43,i,C=CCOc1ccc(-c2nc3c(c(=O)[nH]c(=O)n3CCCC)n2C)cc1Br
-0.63,i,COCCOC(=O)c1c(C)oc2ccc(OC(=O)c3c(OC)cccc3OC)cc12
-0.37,i,COc1cccc(NC(=O)c2cccc(N3C(=O)C4CCC(C)CC4C3=O)c2)c1 (stereo unspecified)

# (list continues)
KCNQ2 inh baseline,KCNQ2 inh,molecule
-1.1,i,CCc1cccc(C)c1NC(=S)NCc1cccn1C
-0.19,i,Cc1ccc(S(=O)(=O)c2c(COC(=O)c3ccc(Cl)cc3)c(-c3ccccc3)nn2C)cc1
0.66,i,CCCn1cc(S(=O)(=O)c2ccc(Cl)cc2)c(=O)c2cc(OC)ccc21
0.65,i,N=C(N)SCc1ccccn1
-0.32,i,CC(=O)Nc1cccc(C(=O)/C=C/c2ccc(/C=C/C(=O)c3cccc(NC(C)=O)c3)cc2)c1
-0.72,i,CN(C)S(=O)(=O)c1cccc(NC(=O)CSc2nc3c(cc2C#N)C(=O)CC(C)(C)C3)c1
0.22,i,O=C(/C=C/c1nc2ccccc2s1)N1CCCCCC1
1.4,i,CCCCC1=CC2=C(c3ccco3)C(=O)C(C)(OC(=O)c3ccc(OC)cc3)C(=O)C2=CN1CC1CC1 (stereo unspecified)
0.44,i,O=C(Cn1nnc2ccccc21)c1ccc(Br)cc1
1.8,i,CCNc1ccc(Br)cc(C(=O)/C=C/c2ccc(Cl)cc2)c1=O
-0.01,i,CC(=O)[C@@H]1[C@@H](C)N(Cc2ccccc2)C(=O)N[C@H]1c1cccc(C(F)(F)F)c1
-0.74,i,CN(Cc1cccs1)C(=O)Cc1c[nH]c2ccccc12
-0.31,i,Cc1cccc(NC(=S)N(CCN(C)C)Cc2cc3cc(C)ccc3[nH]c2=O)c1

# This is a subset; count on the stated rates, not on these rows.
